# YopH inh: YopH tyrosine phosphatase inhibitors, primary screen, biochemical, fluorescence Ex485/Em525 | actives 0.16% (n = 140,000) | inhibition, %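 (about 10 µM by stock and volumes)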 | AID 898, 2007 | YopH tyrosine phosphatase [Yersinia enterocolitica];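 active means inhibition of 50% or more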;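 further: controls were vehicle for no effect and minimum signal wells for full effect; inactives centre near -20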
# Arbovirus inh: antivirals against arbovirus infection, primary screen, cell-based, full library, 10K replicate subset | arbovirus infection cell-based antiviral screen | inhibition, % at 10 µM | actives 0.37% (n = 200,000) | AID 1251, 2008;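 active means inhibition from about 30%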;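 further: bluetongue infection of BSR cells; cell survival read as ATP light after 72 h; 0% = infected wells without compound and 100% = uninfected wells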
# RecA splice inh: Mtb RecA intein splicing inhibitors, primary screen, biochemical, fluorescence, HTS. Protein RecA (Mycobacterium tuberculosis (strain ATCC 25618 / H37Rv)), P9WHJ3. inhibition, %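 (about 9 µM by stock and volumes)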. cell-free RecA intein splicing. AID 2221, 2009. actives 0.75% (n = 290,000); in the data active means inhibition above about 30%; inconclusive means no clear call, values can overlap the other calls;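 further: 0% = vehicle wells and 100% = reference inhibitor control wells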
# Target sequence (P9WHJ3 whole entry, looked up, canonical isoform): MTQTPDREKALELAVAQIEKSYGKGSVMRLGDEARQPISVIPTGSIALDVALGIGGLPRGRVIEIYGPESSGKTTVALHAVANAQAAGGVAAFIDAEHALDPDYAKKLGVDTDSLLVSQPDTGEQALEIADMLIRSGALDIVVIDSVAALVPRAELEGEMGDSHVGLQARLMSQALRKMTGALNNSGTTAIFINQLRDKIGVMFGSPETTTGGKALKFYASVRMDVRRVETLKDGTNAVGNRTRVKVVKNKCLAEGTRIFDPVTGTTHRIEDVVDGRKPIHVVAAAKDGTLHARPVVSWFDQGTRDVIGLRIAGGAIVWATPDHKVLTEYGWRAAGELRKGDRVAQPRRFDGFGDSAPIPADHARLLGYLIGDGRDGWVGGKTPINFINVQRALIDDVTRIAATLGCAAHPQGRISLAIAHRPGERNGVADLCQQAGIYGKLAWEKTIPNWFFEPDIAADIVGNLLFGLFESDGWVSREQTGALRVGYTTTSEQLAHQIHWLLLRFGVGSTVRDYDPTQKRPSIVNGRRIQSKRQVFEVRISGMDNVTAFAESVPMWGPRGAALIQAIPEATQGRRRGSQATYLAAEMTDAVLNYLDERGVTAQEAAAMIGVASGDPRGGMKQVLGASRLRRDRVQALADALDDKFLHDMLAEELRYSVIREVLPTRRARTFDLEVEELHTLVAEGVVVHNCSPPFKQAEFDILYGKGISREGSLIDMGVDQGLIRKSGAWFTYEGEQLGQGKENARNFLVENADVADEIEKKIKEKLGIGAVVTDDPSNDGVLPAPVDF
# Mtb H37Rv: M. tuberculosis H37Rv growth inhibitors, H37Rv strain (AID 1626); M. tuberculosis H37Rv growth inhibition; higher % means a stronger effect; one-dose inhibition, % at 10 µM; IC50 in µM for titrated hits; actives 0.95% (n = 220,000);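 active means confirmed in a dose series; inconclusive means inhibition above 80% but not taken into the dose series; inactive means below 80% or under 30% at every dose of the series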;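 further: bacteria incubated seven days before Alamar blue readout; 0% = bacteria only wells and 100% = bacteria with antibiotic wells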
# Mtb betalactam: beta-lactam sensitization of Mtb H37Rv, H37Rv; AID 434955, 2010; M. tuberculosis H37Rv growth with meropenem, percent inhibition; hits of this screen are not shown here; actives 0.27% (n = 330,000); inhibition, % at 25 µM;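 active means about 74% or more and at least 40 points above the plate without the antibiotic, then above 30% in a dose series; inconclusive means first-round hits that could not be retested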;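 further: growth measured after seven days incubation then overnight dye step; 0% = bacteria only wells and 100% = bacteria with antibiotic; twin plates without the antibiotic show which effects depend on it; some results filed as inactive read as strong as hits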
# Arbovirus inh repeat: second read-out of Arbovirus inh, no call of its own (marks repeat the call); inhibition, %; measured here: 10K subset replicate screen; many hits read low in the repeat;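 first of two repeat runs on a subset; 0% = infected and 100% = uninfected wells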
# An asterisk follows results filed as active; ? = inconclusive; nt = no result given.
SMILES,YopH inh,Arbovirus inh,RecA splice inh,Mtb H37Rv,Mtb betalactam,others
CC(=O)c1sc(NC(=O)CS(=O)(=O)c2ccccc2)nc1C,nt,nt,-1.1,nt,-8,
COc1ccc(Cl)cc1N(CC(=O)NC1CC1)S(=O)(=O)c1ccc(C)c([N+](=O)[O-])c1,nt,4,-1.8,-3%,-2,
CCOC(=O)N1CCN(C(=O)CCc2c(C)nc3c(c(C)nn3-c3ccc(C)c(C)c3)c2C)CC1,5,-5,0.5,59%,-4,
CC(SCc1cc(=O)n2c([nH]c3ccccc32)c1C#N)C(=O)O (centres undefined),nt,-1,-8.5,-5%,-4,
COc1ccc(N2CCN(C(=O)c3cc4cc(Cl)ccc4[nH]3)CC2)cc1,nt,nt,1.9,nt,-13,
O=C(CSc1ncn[nH]1)Nc1ccc(S(=O)(=O)Nc2ncccn2)cc1,nt,4,-2.5,4%,4,
O=C(NCCC(=O)N1CCC2(CC1)NCCc1[nH]cnc12)c1cccc(Br)c1,nt,nt,-2.3,nt,3,
COc1ccc(Cn2c(O)c(C=NCCN3CCOCC3)c(=O)[nH]c2=O)cc1,-5,2,-0.4,-8%,3,
OC(Cc1cccnc1)(Cc1cccnc1)c1cc2ccccc2[nH]1,-9,-3,-1.2,2%,-6,
COc1ccc(OC)c2c1CCC2=O,-16,1,0.0,-6%,-14,
Cc1cc(NC(=O)C2CCCN(S(=O)(=O)c3c(C)noc3C)C2)no1 (centres undefined),-22,3,0.0,-1%,-2,
Cc1cc(C)c(C#N)c(SCC(=O)NC(C)(C)C)n1,-33,12,-0.1,3%,-5,
Cc1ccc(C(=O)Nc2sc3c(c2C(=O)NCc2ccco2)CCCC3)cc1,9,-12,nt,13%,20,
O=c1c2ccccc2[nH]c(=S)n1CCN1CCN(Cc2ccccc2)CC1,-26,-5,0.6,4%,-6,
Cc1occc1C(=O)N/N=C/C(Br)=C\c1ccccc1,nt,nt,10,9%,23,
Cc1ccccc1OCC(=O)N/N=C/c1cc2ccccc2nc1Cl,-7,6,-5.5,-5%,-6,
O=C(Nc1ccccc1)Nc1ccno1,nt,nt,-0.5,2%,-6,
COc1cc(CNC(C)c2ccccc2)c(Br)cc1OCC(N)=O (centres undefined),-15,-3,0.2,-4%,-22,
CCn1c(=O)cc(OCC(=O)Nc2ccccc2N2CCN(C)CC2)c2ccccc21,-33,-2,-2.8,3%,0,
COc1ccc(C(=O)C(CN2CCOCC2)c2ccccc2)cc1F (centres undefined),-38,-42,6.7,12µM*,nt,
COc1cc(C(=O)NCC(c2ccco2)N2CCCC2)ccc1OCc1c(C)noc1C (centres undefined),-25,-7,-0.1,-3%,-6,Arbovirus inh repeat=-8
O=C(COc1ccccc1)NCC1CCCO1 (centres undefined),-5,-1,-0.3,8%,0,
Cc1cc(C)n(CC2CC(=O)N(c3cc(Cl)cc(Cl)c3)C2=O)n1 (centres undefined),-19,1,0.3,-11%,2,
CCC(C)c1ccc(NC(=S)N2CCCC2)cc1 (centres undefined),nt,nt,0.4,nt,-1,
CN(C)S(=O)(=O)c1cccc(C(=O)OCC(=O)Nc2ccccc2OC(F)F)c1,-6,3,1.6,6%,1,
CC(C)n1c(COc2ccccc2)nc2ccccc21,nt,nt,1.4,nt,3,
Cc1cc(NC(=O)CSCC(=O)OCC(=O)Nc2cc(C)c(C)cc2[N+](=O)[O-])no1,nt,nt,7.2,nt,-3,
CCCc1cc(=O)oc2c3c(cc(OCC(=O)NCC4CCC(C(=O)O)CC4)c12)OC(C)(C)CC3 (centres undefined),nt,nt,3.2,nt,-5,
O=C(O)c1ccc(/C=N/Nc2ccc(Cl)nn2)cc1,nt,nt,-8.1,nt,13,
O=C(C1=C(O)C(=O)N(CC2CCCO2)C1c1cccnc1)c1ccco1 (centres undefined),-21,-2,-1.1,-9%,2,
O=C(CSCc1ccc(Cl)cc1)Nc1ccccc1O,nt,4,3.8,17%,67,
O=C(NNc1cc(Cl)ccc1Cl)c1cccs1,nt,nt,1.5,67%,97,
C=CCNC(=O)COC(=O)/C=C/c1cccs1,nt,24,0.1,-4%,-5,
CCCOc1ccc(-c2csc(NC(=O)CN3C(=O)CCC3=O)n2)cc1,-1,11,0.1,-1%,3,
Cc1ccc(C(=O)NCCc2nnc3ccc(N4CCCC4)nn23)cc1,nt,nt,-0.1,nt,5,
CC1(N2CCCCC2)CC2(O)C(=[N+]1[O-])CCC/C2=N\O (centres undefined),-1,4,0.5,nt,-10,
N=C1C2=C3Sc4ccccc4N3CCCC2=NN1c1cccc(S(=O)(=O)O)c1,nt,nt,4.1,-4%,-3,
CC1CC(C)CN(c2oc(-c3ccccc3F)nc2C#N)C1 (centres undefined),nt,nt,-3.4,nt,1,
COc1ccc(-c2nnc3ccc(SCC(=O)Nc4nc5ccccc5s4)nn23)cc1OC,-32,4,-2.4,6%,1,
O=C(CSc1ccc(-c2cccnc2)nn1)Nc1ccc(F)cc1F,nt,nt,-0.4,nt,-10,
Cc1onc(-c2ccccc2)c1C(=O)Nc1ccc(OC(C)C)cc1,-24,-3,2.8,-3%,-7,
CCN(CC(=O)NCc1ccc(Cl)cc1)S(=O)(=O)c1ccc(F)cc1,nt,nt,0.9,nt,-1,
COc1cccc(NC(=O)/C=C/c2ccco2)c1,nt,-4,4.6,1%,-3,
Cc1ccc(Oc2ccc3c(c2)C(=O)N(c2ccc(S(=O)(=O)Nc4nccs4)cc2)C3=O)cc1,-20,6,-1.2,-10%,-3,
O=c1c2ccccc2c(-c2cccc(C(F)(F)F)c2)nn1-c1ccccc1,nt,nt,-1.2,9%,10,
CC1CCCC(C)N1Cc1cn2ccccc2n1 (centres undefined),2,2,0.7,-2%,0,
CCn1c(C)nnc1SCC(=O)Nc1ccc(Cl)cc1,nt,nt,-1.8,nt,1,
Cc1ccc2cc(C#N)c(NCc3ccco3)nc2c1,-27,0,-3.6,11%,-9,
CC(C)N(CCCNC(=O)C1CCC(CNS(=O)(=O)c2ccccc2)CC1)Cc1ccccc1 (centres undefined),nt,nt,2.6,nt,-6,
CC(=O)Nc1nnc(COc2ccccc2)s1,nt,-6,-2.4,-1%,2,
Cc1ccc(NC(=O)/C(C#N)=C/c2ccc(C)s2)c(C)c1,-16,8,-1.2,-4%,0,
CC[n+]1ccc(C)c2cc(P(=O)(c3ccccc3)c3ccccc3)ccc21,nt,2,25,-5%,1,
COC(=O)c1ccc(S(=O)(=O)N2CCOCC2)o1,nt,nt,-0.9,nt,-9,
Cc1cc(C)c(NC(=O)CSc2nc3ncc(Br)cc3[nH]2)c(Cl)c1,nt,nt,-1.5,nt,1,
CN(C)c1ccc(C(C#N)c2ccccc2)nn1 (centres undefined),nt,4,0.7,7%,-6,
O=C(NCCc1ccccc1)c1ccc(Cl)c(S(=O)(=O)N2CCCC2)c1,nt,nt,0.4,nt,-2,
CC(C(=O)NCc1ccc2c(c1)OCO2)N(c1ccccc1)S(C)(=O)=O (centres undefined),-54,-4,-2.0,2%,-9,
CC1(c2nnc(-c3ccc(F)cc3)o2)CC(c2ccncc2)=NO1 (centres undefined),nt,nt,1.9,-8%,-1,
COCCNC(=O)C1=C(N)C(C(=O)Nc2ccc(C)c(S(=O)(=O)N3CCCCC3)c2)SC1=Nc1ccc(C)cc1C (centres undefined),-2,-24,8.5,0%,12,
Clc1ccccc1CNc1nc2ccccc2n2cnnc12,nt,nt,2.3,-8%,-3,

# Following part:
SMILES,YopH inh,Arbovirus inh,RecA splice inh,Mtb H37Rv,Mtb betalactam,others
Cn1nccc1C(=O)N1CCC2(CC1)OCCO2,nt,nt,-0.3,nt,-6,
COc1cc(OC)cc(C(=O)NNC(=O)CN2C(=O)NC(C)(c3ccc(C)cc3)C2=O)c1 (centres undefined),nt,nt,1.3,nt,0,
CCN(CC(=O)Nc1ccc(N2CCOCC2)cc1)C(=O)c1ccc(C#N)cc1,nt,4,0.2,-1%,3,
Nc1nc(C(F)(F)F)c(Br)c(=O)n1N,nt,1,-4.2,2%,-7,
COc1ccc(NC2=CC(c3ccc(F)cc3)N(c3ccc(OC)cc3)C2=O)cc1 (centres undefined),-24,-6,-2.7,?,13,
CCOC(=O)c1c(C)n(CCNC(C)=O)c2ccc(OC)cc12,-10,1,-0.6,-11%,-6,
CCC1CCC(C(=O)NNC(=O)c2cc(-c3ccco3)[nH]n2)CC1 (centres undefined),nt,1,4.9,4%,-10,
COc1ccc(C(=O)N2CCN(C(=O)C3COc4ccccc4O3)CC2)cc1 (centres undefined),nt,nt,0.3,nt,3,
COc1ccc(/C=C(\NC(=O)c2ccco2)C(=O)NC(Cc2ccccc2)C(=O)O)cc1 (centres undefined),nt,nt,1.8,nt,8,
O=C1c2ccccc2S(=O)(=O)c2cc(N3CCN(C(=O)c4ccccc4)CC3)ccc21,nt,nt,-4.3,13%,15,
CS(=O)(=O)NCCn1ccc2ccccc21,nt,13,0.1,4%,-4,
COc1ccc(N2CC(C(=O)Nc3nnc(SCC(=O)N4CCCC4)s3)CC2=O)cc1 (centres undefined),nt,nt,-1.4,nt,11,
CC(C)(C)Cc1nc(-c2ccccn2)no1,-25,11,-2.4,-2%,-11,
O=C(Nc1ccccc1C(=O)NCc1ccccc1)c1ccco1,9,0,1.7,7%,1,
COc1ccc(N2CC(NC(=O)N3CCN(C(=O)c4ccco4)CC3)CC2=O)cc1OC (centres undefined),nt,nt,0.1,nt,-16,
O=C1/C(=C/c2cccnc2)Sc2ccccc21,-16,0,22,-8%,-2,
Cc1ccc(S(=O)(=O)Nc2ccc(N(C)S(=O)(=O)c3ccc(C)cc3)cc2)cc1,nt,nt,11,-3%,-10,
CC1(c2nnc(-c3ccncc3)o2)CC(c2ccc([N+](=O)[O-])cc2)=NO1 (centres undefined),nt,nt,3.6,-20%,nt,
CC1CCCC(C)N1CCNC(=O)Nc1ccc(Cl)cc1 (centres undefined),11,4,-2.9,3%,-22,
CC(=O)N[C@@H](C)c1nc2ccccc2n1CCCN1CCN(c2nc(-c3ccc(C)cc3)cs2)CC1,nt,nt,-1.7,nt,92,

# Fetched one by one from the list above (6):
SMILES,YopH inh,Arbovirus inh,RecA splice inh,Mtb H37Rv,Mtb betalactam,others
COc1ccc(NC2=CC(c3ccc(F)cc3)N(c3ccc(OC)cc3)C2=O)cc1 (centres undefined),-24,-6,-2.7,?,13,
CC1(c2nnc(-c3ccncc3)o2)CC(c2ccc([N+](=O)[O-])cc2)=NO1 (centres undefined),nt,nt,3.6,-20%,nt,
CC1CCCC(C)N1CCNC(=O)Nc1ccc(Cl)cc1 (centres undefined),11,4,-2.9,3%,-22,
COc1ccc(C(=O)N2CCN(C(=O)C3COc4ccccc4O3)CC2)cc1 (centres undefined),nt,nt,0.3,nt,3,
Cc1ccc(S(=O)(=O)Nc2ccc(N(C)S(=O)(=O)c3ccc(C)cc3)cc2)cc1,nt,nt,11,-3%,-10,
Cn1nccc1C(=O)N1CCC2(CC1)OCCO2,nt,nt,-0.3,nt,-6,

# (list continues)
SMILES,YopH inh,Arbovirus inh,RecA splice inh,Mtb H37Rv,Mtb betalactam,others
O=C(N1CCCCC1)C1(c2ccccc2)CCOCC1,3,1,-1.5,-7%,6,
COc1cccc2cc(-c3ccnc(N)n3)oc12,nt,6,-0.4,-2%,-9,
Cc1cc(C)nc(NS(=O)(=O)c2ccc(NC(=O)c3ccc(N4C(=O)CCC4=O)cc3)cc2)n1,-10,5,0.8,1%,-5,
CC1=CC2CC1C1C(=O)N(c3ccc(S(=O)(=O)Nc4nc(C)cc(C)n4)cc3)C(=O)C21 (centres undefined),-21,5,-2.8,-8%,3,

# Part of the list above in order of length of the SMILES, rising.
SMILES,YopH inh,Arbovirus inh,RecA splice inh,Mtb H37Rv,Mtb betalactam,others
CC1(N2CCCCC2)CC2(O)C(=[N+]1[O-])CCC/C2=N\O (centres undefined),-1,4,0.5,nt,-10,
Cc1cc(C)c(NC(=O)CSc2nc3ncc(Br)cc3[nH]2)c(Cl)c1,nt,nt,-1.5,nt,1,
CC[n+]1ccc(C)c2cc(P(=O)(c3ccccc3)c3ccccc3)ccc21,nt,2,25,-5%,1,

# These rows are one share of the data; rates above refer to the full screens.
